Screening results (PubChem)
NOMO-1 viab = NOMO-1 AML cell viability reduction, primary screen, STK33 inhibitor project, CellTiter-Glo luminescence; NOMO-1 AML viability, 72 h; inhibition, % (test concentration not listed); 7.5% of 37,000 active;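 active = most replicates above 80%; inconclusive = exactly half above 80%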;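 note: wells of about 30 µL received 25 nL stock; 0% = median of vehicle wells and 100% = reference inhibitor level; the first replicate is given; inactives centre near 10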
Starred values were filed as active, the others as inactive; ? = inconclusive. A portion of the library; count on the stated rates, not on these rows.

nr	SMILES	NOMO-1 viab
1	C[C@@H]1CCCCO[C@H](CN(C)S(=O)(=O)c2ccccc2)[C@@H](C)CN([C@H](C)CO)C(=O)c2cc(NC(=O)Nc3ccccc3)ccc2O1	28.9
2	C[C@H]1CN([C@@H](C)CO)C(=O)Cc2cc(NS(=O)(=O)c3ccc(Cl)cc3)ccc2O[C@H]1CN(C)Cc1ccc(Oc2ccccc2)cc1	77.7
3	Cc1ccc(C23CC4CC(CC(CN)(C4)C2)C3)cc1C	115.7*
4	COc1ccc(S(=O)(=O)N(C)CC(=O)Nc2ccccc2SC)cc1	15.2
5	COc1cc([N+](=O)[O-])ccc1NC(=O)CN(C)S(=O)(=O)c1ccc2ccccc2c1	-15.1
6	C[C@H]1CN([C@@H](C)CO)C(=O)c2cccc(NS(C)(=O)=O)c2O[C@H]1CN(C)C	-13.0
7	C[C@@H]1CCCCO[C@H](CN(C)Cc2ccc(Cl)c(Cl)c2)[C@@H](C)CN([C@H](C)CO)C(=O)c2cc(NC(=O)CCC(F)(F)F)ccc2O1	50.9
8	Cc1ccc(S(=O)(=O)N(C)C[C@H]2Oc3ccc(NS(=O)(=O)c4ccc(F)cc4)cc3CC(=O)N([C@@H](C)CO)C[C@H]2C)cc1	-1.9
9	C[C@H]1CN([C@@H](C)CO)C(=O)c2cc(N(C)C)ccc2O[C@H]1CN(C)S(=O)(=O)c1cn(C)cn1	13.1
10	CC(C)NC(=O)Nc1ccc2c(c1)CC(=O)N([C@H](C)CO)C[C@H](C)[C@H](CN(C)Cc1ccc(Cl)c(Cl)c1)O2	18.3
11	COc1ccc(S(=O)(=O)Nc2cccc3c2O[C@@H](CN(C)C)[C@@H](C)CN([C@@H](C)CO)C3=O)cc1	-14.1
12	Cc1ccc(NC(=O)CSc2nnnn2C2CC3CCC2C3)cc1 (centres undefined)	6.8
13	CCCOc1ccc(-c2nc(SCC(=O)O)n[nH]2)cc1	-8.9
14	C[C@H](CO)N1C[C@H](C)[C@H](CN(C)C(=O)Nc2ccc3c(c2)OCO3)Oc2c(NC(=O)C3CC3)cccc2C1=O	-3.1
15	C[C@@H]1CN([C@H](C)CO)C(=O)Cc2cc(NC(=O)Nc3ccc(C(F)(F)F)cc3)ccc2O[C@@H]1CN(C)Cc1ccccc1	118.2*
16	C[C@@H]1CN([C@H](C)CO)C(=O)c2cc(N(C)C)ccc2O[C@H]1CN(C)C(=O)Nc1ccccc1	5.6
17	COc1c(C)cc(S(=O)(=O)NCc2ccccn2)c(C)c1C	28.2
18	CN(C/C=C/c1ccccc1[N+](=O)[O-])CCc1ccccn1	41.1
19	C[C@@H]1CN([C@@H](C)CO)C(=O)c2cccc(NS(C)(=O)=O)c2O[C@@H]1CN(C)S(=O)(=O)c1ccccc1	30.6
20	COc1ccc(NC(=O)N(C)C[C@@H]2Oc3ccc(NC(=O)Nc4cccc5ccccc45)cc3C(=O)N([C@H](C)CO)C[C@H]2C)cc1	-5.2
21	COc1ccc(NC(=O)Nc2ccc3c(c2)CC(=O)N([C@H](C)CO)C[C@@H](C)[C@@H](CN(C)C)O3)cc1	-1.5
22	CNC[C@@H]1Oc2ccc(NC(=O)Nc3ccccc3)cc2CC(=O)N([C@@H](C)CO)C[C@@H]1C	25.1
23	CC1(C)O[C@H]2CC(=O)OC[C@@]23[C@H]1CC(=O)[C@@]1(C)C2=CC(=O)O[C@@H](c4ccoc4)[C@]2(C)CC[C@@H]13	15.1
24	COc1cc(O)c2c(=O)cc(-c3cc(OC)c(OC)c(O)c3OC)oc2c1	-2.8
25	COc1ccc(CN(C)C[C@H]2Oc3ccc(NC(=O)Cc4ccccc4)cc3C(=O)N([C@@H](C)CO)C[C@@H]2C)cc1	27.7
26	C[C@H](CO)N1C[C@H](C)[C@H](CN(C)Cc2ccc(-c3ccccc3)cc2)Oc2c(NC(=O)c3ccncc3)cccc2C1=O	54.4
27	O=C(c1ccc(Cl)cc1)n1c(=O)oc2cc(Cl)ccc21	132.1*
28	Cc1nc(-c2ccccc2)nc(SCC(=O)O)c1Cc1ccccc1	-1.6
29	Cc1noc(C)c1S(=O)(=O)Nc1ccc2c(c1)CC(=O)N([C@@H](C)CO)C[C@H](C)[C@H](CN(C)S(=O)(=O)c1cccs1)O2	1.6
30	COc1ccc(CN(C)C[C@H]2Oc3c(NC(=O)c4nc5ccccc5s4)cccc3C(=O)N([C@H](C)CO)C[C@@H]2C)cc1	34.5
31	C[C@@H]1CN([C@@H](C)CO)C(=O)Cc2cc(NC(=O)NC3CCCCC3)ccc2O[C@@H]1CN(C)Cc1ccncc1	-1.5
32	COc1ccccc1CCNC(=O)c1cc(-c2ccccn2)nc2c(C)c(Cl)ccc12	101.4*
33	COc1ccc(C)cc1S(=O)(=O)N(C)CC(=O)Nc1cccc(SC)c1	10.8
34	COc1cc(C)c(S(=O)(=O)NCCc2c(C)[nH]c3ccccc23)cc1C	34.2
35	Cc1ccc(S(=O)(=O)N(C)C[C@H]2Oc3ccc(NC(=O)Nc4ccc5c(c4)OCO5)cc3CC(=O)N([C@H](C)CO)C[C@H]2C)cc1	17.0
36	COc1ccc(OC)c(S(=O)(=O)N(C)c2ccccc2C(=O)O)c1	36.3
37	COc1ccccc1NC(=O)CSCC#N	29.8
38	O=C1Nc2ccccc2-c2nc3ccccc3c(=O)n2-c2c(O)cccc21	8.1
39	C[C@H](CO)N1C[C@H](C)[C@H](CN(C)C(=O)NC2CCCCC2)Oc2c(NC(=O)Nc3ccc(F)cc3)cccc2C1=O	64.4
40	O=C1CC(c2cccs2)Cc2nc(NCCN3CCOCC3)ncc21 (centres undefined)	5.5
41	O=C(c1ccc(O)cc1)N1Cc2ccccc2NC1=S	-0.5
42	O=C(CSc1ncnc2scc(-c3ccc(Cl)cc3)c12)Nc1ccc2c(c1)OCCO2	24.3
43	COc1cccc2cc(C(=O)C3C(=O)C(=O)N(c4nc(C)c(C)s4)C3c3ccco3)oc12 (centres undefined)	-11.3
44	C[C@H]1CN([C@@H](C)CO)C(=O)c2cccc(NC(=O)c3ccncc3)c2O[C@H]1CN(C)Cc1ccc(C(F)(F)F)cc1	5.0
45	C[C@@H]1CN([C@@H](C)CO)C(=O)c2cc(NC(=O)NC3CCCCC3)ccc2O[C@@H]1CN(C)CC1CCCCC1	4.7
46	Cc1noc(C)c1NC(=O)Nc1cccc2c1O[C@H](CN(C)S(=O)(=O)c1cccs1)[C@@H](C)CN([C@H](C)CO)C2=O	16.0
47	C[C@@H]1CN([C@H](C)CO)C(=O)c2cc(NC(=O)C3CC3)ccc2O[C@H]1CN(C)Cc1ccc(C(=O)Nc2ccccc2N)cc1	?
48	CC(C)NC(=O)Nc1ccc2c(c1)C(=O)N([C@@H](C)CO)C[C@H](C)[C@@H](CN(C)Cc1ccc3c(c1)OCO3)O2	-9.6
49	C[C@H](CO)N1C[C@H](C)[C@H](CN(C)S(=O)(=O)c2ccc(F)cc2)Oc2ccc(NC(=O)Nc3cccc4ccccc34)cc2C1=O	46.9
50	C[C@H](CO)N1C[C@H](C)[C@H](CN(C)S(C)(=O)=O)Oc2ccc(NC(=O)c3ccncc3)cc2CC1=O	-14.9
51	C[C@H](CO)N1C[C@H](C)[C@H](CN(C)CC2CCCCC2)Oc2ccc(NS(C)(=O)=O)cc2C1=O	11.1
52	C[C@H](CO)N1C[C@H](C)[C@H](CN(C)C(=O)Nc2cccc3ccccc23)Oc2c(NS(=O)(=O)c3ccc(Cl)cc3)cccc2C1=O	2.5
53	C[C@@H]1CN([C@@H](C)CO)C(=O)c2cccc(NS(=O)(=O)c3ccc(F)cc3)c2O[C@H]1CN(C)C(=O)Nc1ccc(F)cc1	7.6
54	Cc1ccc(S(=O)(=O)N(C)C[C@@H]2Oc3ccc(NC(=O)CCC(F)(F)F)cc3C(=O)N([C@H](C)CO)C[C@@H]2C)cc1	-4.0
55	C[C@H]1CN([C@@H](C)CO)C(=O)c2cc(NC(=O)CCC(F)(F)F)ccc2O[C@H]1CN(C)Cc1ccc(Oc2ccccc2)cc1	22.5
56	O=c1c(C(F)(F)F)cccn1CCc1nc(-c2ccccc2)cs1	8.2

New compounds follow:
nr	SMILES	NOMO-1 viab
57	C[C@H](CO)N1C[C@H](C)[C@H](CN(C)Cc2ccccc2)Oc2c(NS(=O)(=O)c3cccs3)cccc2C1=O	27.7
58	C[C@H]1CN([C@@H](C)CO)C(=O)Cc2cc(NS(=O)(=O)c3ccc(Cl)cc3)ccc2O[C@@H]1CN(C)Cc1ccc(Cl)c(Cl)c1	84.1*
59	C[C@H](CO)N1C[C@H](C)[C@H](CN(C)CC2CCCCC2)Oc2ccc(NC(=O)NC3CCCCC3)cc2CC1=O	43.3
60	C[C@@H]1CN([C@@H](C)CO)C(=O)c2cccc(NC(=O)c3ccc(-c4nccs4)cc3)c2O[C@@H]1CN(C)Cc1ccc2c(c1)OCO2	38.3
61	C[C@@H]1CCCCO[C@H](CN(C)C(=O)Nc2ccc(C(F)(F)F)cc2)[C@@H](C)CN([C@H](C)CO)C(=O)c2cc(NS(=O)(=O)c3ccccc3)ccc2O1	69.9
62	C[C@H]1CN([C@@H](C)CO)C(=O)c2cccc(NC(=O)Nc3ccccc3)c2O[C@@H]1CN(C)Cc1ccc2c(c1)OCO2	67.9
63	COc1ccc(OC)c(NC(=O)c2ccc(N(C)S(=O)(=O)c3ccc(OC)c(OC)c3)cc2)c1	4.3
64	Cc1ccc(NC(=O)CSc2nc(C)cc(-c3ccc(Cl)cc3)n2)cc1	-5.7
65	CC(C)NC(=O)Nc1ccc2c(c1)CC(=O)N([C@H](C)CO)C[C@@H](C)[C@H](CN(C)Cc1ccccc1)O2	2.7
66	C[C@@H]1CCCCO[C@@H](CN(C)C(=O)Nc2ccccc2)[C@@H](C)CN([C@H](C)CO)C(=O)c2cc(NC(=O)Cc3ccccc3)ccc2O1	21.2
67	O=C(CSc1nnc(COc2ccccc2)o1)NCc1ccccc1	35.7
68	COC(=O)c1ccc(C=Nc2ccc3oc(-c4ccc(C)cc4)nc3c2)cc1	-22.5
69	COc1ccccc1C(=O)N1CCN(c2ccc([N+](=O)[O-])c(NCc3cccnc3)c2)CC1	36.8
70	CC(C)NC(=O)N(C)C[C@H]1Oc2ccc(NS(=O)(=O)c3cccs3)cc2C(=O)N([C@@H](C)CO)C[C@H]1C	13.7
71	Clc1ccc(-c2onc3cc(-c4ccccc4)ccc23)cc1	50.6
72	CSc1cccc(NC(=O)CN(C)S(=O)(=O)c2c(C)cc(C)cc2C)c1	15.7
73	COc1ccc(S(=O)(=O)Nc2ccc3c(c2)C(=O)N([C@@H](C)CO)C[C@@H](C)[C@@H](CN(C)Cc2ccc(-c4ccccc4)cc2)O3)cc1	91.0*
74	COC(=O)c1cc(OC)c(OC)cc1NC(=O)COc1cc(C)c(Br)c(C)c1	24.4
75	Cc1noc(C)c1S(=O)(=O)Nc1ccc2c(c1)CC(=O)N([C@@H](C)CO)C[C@H](C)[C@@H](CN(C)S(=O)(=O)c1ccccc1)O2	6.0
76	C[C@@H]1CN([C@H](C)CO)C(=O)c2cc(NC(=O)C3CC3)ccc2O[C@H]1CN(C)S(=O)(=O)c1ccc(F)cc1	6.3
77	Cc1nnc(SCCN2C(=O)c3ccccc3C2=O)[nH]c1=O	3.9
78	COc1ccc(-n2c(SCC(=O)NC3CCCCC3)nnc2-c2cccs2)cc1	1.2
79	O=S(=O)(/C=C/c1ccccc1)N1C=Cc2ccccc2C1c1c[nH]c2ccccc12 (centres undefined)	49.9
80	COc1ccc(S(=O)(=O)N(C)C[C@H]2Oc3ccc(NC(=O)C4CC4)cc3CC(=O)N([C@@H](C)CO)C[C@H]2C)cc1	17.4
81	C[C@@H]1CN([C@@H](C)CO)C(=O)c2cc(NS(=O)(=O)c3ccc(Cl)cc3)ccc2O[C@@H]1CN(C)S(=O)(=O)c1cccs1	20.0
82	Nc1nnc(SC/C=C/CSc2nnc(N)s2)s1	-0.3
83	CN1C(=O)COc2ccc(C(=O)c3ccccc3C(=O)O)cc21	-13.0
84	COC(=O)c1ccc(C(=O)OC)c(NC(=O)c2cnn3c(C(F)F)cc(-c4ccc(C)cc4)nc23)c1	?
85	C[C@@H]1CN([C@@H](C)CO)C(=O)c2cc(NC(=O)Cc3cn(C)c4ccccc34)ccc2O[C@@H]1CN(C)S(=O)(=O)c1ccc(Cl)cc1	37.5
86	Cc1nonc1OCCNc1cc(N2CCCC2)ccc1[N+](=O)[O-]	-12.1
87	CC(=O)N1CCN(c2ccc([N+](=O)[O-])c(NCc3cccnc3)c2)CC1	29.8
88	CNC[C@@H]1Oc2ccc(NC(=O)NC3CCCCC3)cc2C(=O)N([C@@H](C)CO)C[C@@H]1C	2.9

Along the list, as entered above.
NOMO-1 viab, nos. 48 to 52, in order: -9.6, 46.9, -14.9, 11.1, 2.5

Later entries.
nr	SMILES	NOMO-1 viab
89	CCCCCCN(CCCCCC)C(=O)Cc1c(-c2ccc(F)cc2)[nH]c2ccccc12	68.4
90	C[C@@H]1CN([C@H](C)CO)C(=O)c2cc(NC(=O)Nc3ccc(C(F)(F)F)cc3)ccc2O[C@H]1CN(C)C(=O)Nc1ccc(C(F)(F)F)cc1	108.6*
91	Cc1ccc(S(=O)(=O)Nc2cccc3c2O[C@@H](CN(C)Cc2ccc(C(F)(F)F)cc2)[C@H](C)CN([C@@H](C)CO)C3=O)cc1	11.0
92	COC(=O)c1c(NC(=O)CCN2C(=O)c3ccccc3C2=O)sc(C)c1-c1ccccc1	-17.3

Pulled by structure from the list above:
nr	SMILES	NOMO-1 viab
92	COC(=O)c1c(NC(=O)CCN2C(=O)c3ccccc3C2=O)sc(C)c1-c1ccccc1	-17.3
89	CCCCCCN(CCCCCC)C(=O)Cc1c(-c2ccc(F)cc2)[nH]c2ccccc12	68.4
91	Cc1ccc(S(=O)(=O)Nc2cccc3c2O[C@@H](CN(C)Cc2ccc(C(F)(F)F)cc2)[C@H](C)CN([C@@H](C)CO)C3=O)cc1	11.0
